# Rango release inh: inhibition of RanGTP-driven Rango-importin beta dissociation; Biochemical FRET Rango-importin beta, RanGTP-induced dissociation; 340,000 compounds, 0.071% hits; O95149+P62826; AID 540253; Potency, µM (series often up to 46.1 µM), inactives show at the top dose activity change, negative = inhibition; active means falling FRET ratio curve, often poorly fitted, with flat reads before Ran was added; inconclusive means other falling curves, or compound fluorescence or quenching; inactive means flat or rising ratio curve;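 further: potency means the concentration at half of the fitted maximal effect; % of control where 0% means no effect; nearly all actives have a fitted effect of over 45% in size; -100% = wells without RanGTP and RCC1; the record marks most hits as doubtful in a second field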
#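 Compounds preincubate 5 min with complex of recombinant Rango and importin beta in PBS with 1 mM DTT. Ran (0.6 uM) loaded with 2 mM GTP plus 0.2 uM RCC1 starts dissociation; FRET is recorded 45 min later.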
# Rango complex inh: prevents formation of the Rango-importin beta complex. Q14974. Rango CFP/YFP FRET sensor + importin beta, 45 min. Potency, µM (highest dose often 92.2 µM), inactives show at the top dose inhibition of complex formation. 340,000 compounds, 0.031% hits. AID 540263; active = rising FRET ratio curve, often small or poorly fitted; inconclusive = mostly compound fluorescence or quenching in the first reads; inactive = flat curves in all reads;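 further: potency means the concentration at half of the fitted maximal effect; 0% = DMSO wells and 100% = buffer wells lacking importin beta; nearly all actives have a fitted effect of over 15% in size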
#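 Inhibition scored from the CFP 486 nm/YFP 530 nm FRET ratio 45 min after adding 0.125 microM importin beta to 50 nM Rango biosensor preincubated 5 min with compound (room temperature, PBS with DTT, Tween-20, BSA). No-importin wells as positive control.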
# GLA inh pH 4.5: blocks human alpha-galactosidase A at pH 4.5; P06280; 230,000 tested, under 10 active; activity change, negative = inhibition, % at 105 µM; purified enzyme, 4-MU-alpha-Gal fluorescence, pH 4.5; inconclusive = small, poorly fitted or top-dose-only inhibition, or a rising curve; inactive = flat fitted curve, though single readings scatter; no compound was filed as active;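 further: 0% = full activity with enzyme and -100% = basal without enzyme; dose as in the result columns while the protocol names 77 µM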
# Target sequence (P06280 whole entry, looked up): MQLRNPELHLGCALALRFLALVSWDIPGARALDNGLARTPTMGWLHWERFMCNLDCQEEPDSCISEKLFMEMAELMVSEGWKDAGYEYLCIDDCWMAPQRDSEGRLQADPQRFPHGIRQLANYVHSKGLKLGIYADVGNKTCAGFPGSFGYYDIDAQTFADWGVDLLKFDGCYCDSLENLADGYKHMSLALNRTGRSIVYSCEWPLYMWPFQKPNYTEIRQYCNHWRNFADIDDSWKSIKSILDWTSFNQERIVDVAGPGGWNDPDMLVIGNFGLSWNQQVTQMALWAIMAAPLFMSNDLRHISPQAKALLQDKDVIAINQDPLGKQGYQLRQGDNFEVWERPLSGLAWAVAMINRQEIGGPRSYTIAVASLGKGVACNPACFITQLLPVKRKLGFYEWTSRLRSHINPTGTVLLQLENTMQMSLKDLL
# miR-21 FLuc: miR-21 reporter, rising signal | HeLa miR-21 FLuc reporter, luciferase, 48 h | Potency, µM (series often up to 38.3 µM), for the others: at the top dose reporter change, positive = more light | 340,000 tested, under 10 active | AID 2288; active = well fitted rising curve with a large enough effect; inconclusive = small, poorly fitted or top-dose-only effect; inactive = no such curve, though single readings can be large or run the other way;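 further: % of control where 0% means no effect; miR-21 action dims this reporter so a rising signal means less miR-21 action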
#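 Compounds were titrated across several concentrations (up to approximately 40 uM) and incubated 48 hours with HeLa miR-21-FLuc reporter cells (miR-21 target sequence downstream of FLuc, endogenous miR-21). Readout was firefly luciferase luminescence after lytic detection reagent.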
# An asterisk follows results filed as active; ? = inconclusive; nt = no result given; & = joins results of further samples. Only part of the results is shown (hit frequency here may not be typical).
miR-21 FLuc	Rango release inh	GLA inh pH 4.5	Rango complex inh	Compound
0%	-3%	-3	3.5%	O=C(CC(C(=O)O)P(=O)(c1ccccc1)c1ccccc1)c1ccccc1 (configuration not stated)
-8%	4%	nt	3.7%	Cc1[nH]nc2nc(SCC(=O)NCCC3=CCCCC3)n(-c3ccc(Br)cc3)c(=N)c12
16%	-4%	nt	-4.5%	C=CCn1c(SCC(=O)NCC2CCCO2)nc2scc(-c3ccc(OC)cc3)c2c1=O (configuration not stated)
1%&1%	14%	-11	4.5%	O=C(CCSCCc1ccccn1)Nc1cc(F)ccc1F
14%	?	nt	4.9%	COc1cc(C(=O)NCCCCc2ccccc2)cc(OC)c1OC
-2%	?	3	0.3%	CCOCCCNC(=S)N1CCN(Cc2ccco2)CC1
-23%	-6%	-1	3.3%	C/C(=N/Oc1nc(C)cc(C)n1)c1ccc(Br)cc1
-4%	-1%	-3	-0.2%	CN(C(=O)COC(=O)c1cn(-c2ccccc2)nc1-c1ccccc1)C1CCS(=O)(=O)C1 (configuration not stated)
0%&2%	-3%	nt	-3.6%	Cc1ccc(NC(=O)C2CCCN(c3cnccn3)C2)c(C)c1 (configuration not stated)
0%	-4%	nt	-3.0%	COc1ccccc1CNC(=O)c1cc(C(C)C)nc2ccccc12
nt	17%	nt	0.1%	Cc1csc(CNc2ncnc3ccc(-c4ccc5c(c4)OCCO5)cc23)c1
-5%	12%	5	-0.8%	COCCCN(CC(=O)Nc1ccc(N2CCOCC2)cc1)S(=O)(=O)c1ccccc1
nt	-6%	nt	1.3%	OC(C1=CC(=Cc2ccncc2)c2ccccc21)c1ccncc1 (configuration not stated)
nt	9%	nt	1.2%	CC(=O)N1CCN(S(=O)(=O)c2cccc(C(=O)NCc3ccc(F)cc3)c2)CC1
nt	27%	nt	-2.9%	COc1ccccc1OCC(=O)NC1CCSc2ccccc21 (configuration not stated)
-4%	-10%	-20	-0.8%	CC(=O)c1ccc(NC(=O)N2CCCC(C(=O)c3ccc4c(c3)OCO4)C2)cc1 (configuration not stated)
-2%	-7%	nt	?	CCCC(=O)Nc1c2c(nn1-c1ccc([N+](=O)[O-])cc1)CS(=O)(=O)C2
-1%	9%	nt	-3.8%	Cc1c2cnn(CC(=O)NCCCN3CC(C)CC(C)C3)c(=O)c2c(C)n1Cc1ccccc1Cl (configuration not stated)
5%	-17%	6	1.5%	CCC(C)N1CNc2c(c(=O)[nH]c(=S)n2-c2cccc(C)c2)C1 (configuration not stated)
11%	-10%	-9	7.4%	CCN(CC)S(=O)(=O)c1cc(NS(=O)(=O)c2c(Cl)cccc2Cl)ccc1C

# Part of the list above in order of molecular weight, ascending:
miR-21 FLuc	Rango release inh	GLA inh pH 4.5	Rango complex inh	Compound
-2%	?	3	0.3%	CCOCCCNC(=S)N1CCN(Cc2ccco2)CC1
nt	27%	nt	-2.9%	COc1ccccc1OCC(=O)NC1CCSc2ccccc21 (configuration not stated)
-5%	12%	5	-0.8%	COCCCN(CC(=O)Nc1ccc(N2CCOCC2)cc1)S(=O)(=O)c1ccccc1
-1%	9%	nt	-3.8%	Cc1c2cnn(CC(=O)NCCCN3CC(C)CC(C)C3)c(=O)c2c(C)n1Cc1ccccc1Cl (configuration not stated)

# Going on with the list:
miR-21 FLuc	Rango release inh	GLA inh pH 4.5	Rango complex inh	Compound
14%	-10%	-10	?	CCCC(=O)Nc1nc(C)c(-c2csc(Nc3ccc(Cl)cc3)n2)s1
-3%	-9%	0	-3.9%	COc1ccccc1N1CCN(C(=O)Cc2cccs2)CC1
10%	-29%	1	6.6%	COc1ccc(CC(=O)NC(C)c2nnc(SCCOc3ccc(OC)cc3)n2C)cc1 (configuration not stated)
-9%	11%	-1	0.4%	O=C(c1cncc(Br)c1)N1CCCc2ccccc21
-2%	0%	-7	0.0%	CCOC(CCc1c(C)nc(NC(C)=O)[nH]c1=O)OCC
1%	-3%	10	-0.2%	Cc1cccc(C)c1NC(=O)CSc1nnc(Cn2nnc(-c3ccccc3)n2)n1-c1ccccc1
-2%	6%	2	3.0%	Cn1c(Cc2ccccc2)nnc1SCC(=O)Nc1ccc2c(c1)OCCO2
-8%	-8%	8	1.4%	CNC(=S)N/N=C(\C)c1cccc([N+](=O)[O-])c1
nt	-5%	nt	-1.4%	Cc1cc(C)n(CC(=O)NNC(=O)c2ccc(S(C)(=O)=O)cc2)n1
nt	-5%	nt	-1.0%	Cn1c(N)c(C(=O)c2ccc(Cl)c(S(=O)(=O)N3CCCCCC3)c2)c(=O)n(C)c1=O
-3%	-17%	nt	-3.7%	O=C(/C=C/c1cccc(F)c1)NC1CCN(Cc2ccccc2)CC1
2%	-5%	6	-0.5%	COc1ccccc1NC(=O)CN1CC(=O)Nc2ccccc21
-5%	15%	nt	-0.9%	Cc1nc2ccccc2c2ncccc12
-1%	11%	14	2.3%	CC(=O)NNC(=O)CN1C(=O)/C(=C/c2ccccc2)SC1=S
-2%	14%	3	-0.2%	COCCNC(=O)CN(CC1CCCO1)C(=O)CCC(=O)Nc1ccccn1 (configuration not stated)
12%	14%	nt	4.8%	COc1cc(CCC(=O)Nc2c(C(=O)N3CCN(c4ccccc4OC)CC3)oc3ccccc23)on1
-6%	-5%	3	4.9%	CCOc1cccc(-c2nnc3sc(COc4ccc(OC)cc4)nn23)c1
-6%	-12%	-7	2.4%	COc1ccc(CCNC(=O)c2nnn(-c3ccc4c(c3)OCCO4)c2N)cc1OC
1%	-18%	nt	-2.5%	CC(=O)Nc1ccc(S(=O)(=O)Nc2ccc3ccccc3n2)cc1
-6%	-8%	-7	-0.2%	CCOC(=O)c1c(C#N)c(SCC(=O)Nc2ccc(OC)cc2)nc2c1CN(CC)CC2

# Part of the list above, reformatted.
# Under each structure: miR-21 FLuc	Rango release inh	GLA inh pH 4.5	Rango complex inh
> Cn1c(Cc2ccccc2)nnc1SCC(=O)Nc1ccc2c(c1)OCCO2
  -2%	6%	2	3.0%
> CNC(=S)N/N=C(\C)c1cccc([N+](=O)[O-])c1
  -8%	-8%	8	1.4%
> Cc1cc(C)n(CC(=O)NNC(=O)c2ccc(S(C)(=O)=O)cc2)n1
  nt	-5%	nt	-1.4%
> Cn1c(N)c(C(=O)c2ccc(Cl)c(S(=O)(=O)N3CCCCCC3)c2)c(=O)n(C)c1=O
  nt	-5%	nt	-1.0%

# (list continues)
miR-21 FLuc	Rango release inh	GLA inh pH 4.5	Rango complex inh	Compound
-4%	19%	8	2.8%	O=C(O)c1ccccc1NS(=O)(=O)c1cccc(C(F)(F)F)c1
-4%	10%	-6	2.7%	COc1ccc(CNC(=O)CSc2nnnn2-c2ccccc2)cc1
-26%	34%	nt	1.9%	COc1ccc(Nc2nc(OC)nc(OC)n2)cc1
-12%	-8%	-8	0.2%	Cc1nn(C)c(C)c1S(=O)(=O)N1CCC(C(=O)NC2CCCCCC2)CC1
1%	-2%	nt	-0.8%	Cc1ccc(S(=O)(=O)NC(=O)Nc2cccc([N+](=O)[O-])c2)cc1
nt	0%	nt	2.5%	C#CCOCCOCCOCCNc1nc(N2CCN(C(=O)Cn3cc(CCO)nn3)CC2)nc(N2CCN(C(=O)[C@H](CCCCN)n3cc(CCCC)nn3)CC2)n1
22%	9%	-6	-1.8%	Cc1ccc(S(=O)(=O)N2CCCCC2)cc1NC(=O)CSc1ncnc2ccccc12
0%	7%	-4	4.2%	Cc1ccc(NS(=O)(=O)c2cccc(C(=O)Nc3c(C)n(C)n(-c4ccccc4)c3=O)c2)cc1
?	-14%	nt	2.8%	COc1ccc(CC2=CC(=O)c3ccccc3C2=O)cc1
-14%	1%	-5	1.6%	CCN1CCN(Cc2cc(=O)oc3cc4c(cc23)CCC4)CC1
-15%	31%	-8	-3.3%	CCOC(=O)/C(=N/Nc1ccc(C)cc1)S(=O)(=O)c1ccc(Cl)cc1
1%	1%	-1	-4.0%	Cc1nnc(SCC(=O)Nc2nccs2)n(N)c1=O
nt	-9%	nt	0.4%	O=C1NC(=S)SC1=Cc1ccc(Cl)cc1
-4%	0%	2	-1.4%	COc1cc(/C=C(/C#N)C(=O)c2c(C)[nH]c3ccccc23)ccc1OCC#N
11%	-3%	2	-1.1%	c1ccc2c(N3CCCCC3)ncnc2c1
5%	14%	-12	-0.2%	COCCN(CCOC)c1ncc(Cl)c(C(=O)c2c(C)cc3ccccn23)n1
-13%	5%	-11	?	CCN1CCN(c2cc(C)c3cc(NC(=O)c4cncc(Br)c4)ccc3n2)CC1
-2%	2%	-24	0.9%	CC(C)C1Cc2nc(Cl)c(C#N)cc2CO1 (configuration not stated)
-2%	-7%	11	-0.6%	CCSc1nnc(NC(=O)CCNS(=O)(=O)c2cc(Br)cnc2N)s1
-7%	-10%	4	-4.0%	CCOc1ccc(C(=O)NCC2CCCO2)cc1OCC (configuration not stated)
-18%	1%	-20	?	COc1ccc(-c2ccc(/C=N/NC(=O)Cc3nnc(N)s3)o2)cc1Cl
8%	1%	5	5.5%	CC(C)NS(=O)(=O)c1ccc(CCC(=O)NCc2ccncc2)cc1
nt	-2%	nt	0.4%	O=C(Nc1cccc(S(=O)(=O)NC2=NCCC2)c1)c1ccccc1
1%	nt	-8	nt	O=C1CCCC2=C1C(c1ccccc1)C1=C(CCCC1=O)O2
nt	?	nt	-1.6%	O=C(Cc1c(F)cccc1Cl)NNC(=O)c1ccco1
-8%	-13%	nt	-0.8%	O=C(Nc1ccc(-n2cccn2)cc1)C1CCN(Cc2ccccn2)CC1
1%	8%	-1	-1.7%	S=C(NCCCN1CCOCC1)Nc1ccc(Cl)cc1
nt	1%	nt	-0.4%	O=C1c2ccccc2C(=O)N1CCC#Cc1ccc2cc(CCO)oc(=O)c2c1
0%	10%	-12	-0.8%	O=C(Oc1ccc(-c2csnn2)cc1)c1cccs1
0%	2%	nt	-0.2%	C[C@H](NC(=O)[C@@H]1Cc2ccccc2CN1C(=O)OC(C)(C)C)C(=O)NC1CCCC1
-22%	1%	-8	4.6%	CCOC(=O)COc1c(OC)cc(Cl)cc1C1Nc2ccccc2C(=O)N1c1cccc(C)c1 (configuration not stated)
nt	5%	nt	1.8%	C=CCN(c1ccccc1)S(=O)(=O)c1cccc(C(=O)Nc2ccncc2)c1
29%	21%	nt	-2.5%	Cc1cccc(N2CCN(C(=O)CCC(=O)N3CC(C)Oc4ccccc43)CC2)c1C (configuration not stated)
-4%	11%	10	3.0%	Cc1cc(C)cc(-n2nnnc2SCC(=O)Nc2nc(-c3ccc(Cl)cc3)cs2)c1
-3%	20%	-12	1.3%	CCC(=O)Nc1nnc(SCC(=O)N2c3ccccc3CC2C)s1 (configuration not stated)
3%	-15%	-8	-0.8%	CC1(C)C2CCC1(CS(=O)(=O)Nc1ccc(S(=O)(=O)NC3CCCCC3)cc1)C(=O)C2 (configuration not stated)
1%&-4%	4%	nt	?	COc1ccc(OC)c(CNC(=O)CCC(=O)N2Cc3ccccc3Oc3ncccc32)c1
-37%	-19%	0	0.8%	O=C(Nc1ccc2c(c1)Cc1ccccc1-2)c1ccncc1
0%	1%	-1	6.1%	Cc1ccc(Cc2c(C)nc3nc(SCC(=O)NCCN4CCOCC4)nn3c2C)cc1
1%	14%	-3	0.7%	O=C(Oc1ccc([N+](=O)[O-])cc1)c1cccnc1

# Look-ups from the list:
# Result for O=C1c2ccccc2C(=O)N1CCC#Cc1ccc2cc(CCO)oc(=O)c2c1 under Rango complex inh: -0.4%
# Result for C[C@H](NC(=O)[C@@H]1Cc2ccccc2CN1C(=O)OC(C)(C)C)C(=O)NC1CCCC1 under Rango release inh: 2%
# Result for O=C(Nc1cccc(S(=O)(=O)NC2=NCCC2)c1)c1ccccc1 under Rango release inh: -2%

# Going on with the list.
miR-21 FLuc	Rango release inh	GLA inh pH 4.5	Rango complex inh	Compound
22%	-11%	-6	?	CCOC(=O)C1=C(c2ccccc2)NC(SCC(=O)Nc2cccc(C)c2)=C(C#N)C1c1ccco1 (configuration not stated)
-6%	-6%	-9	4.2%	CN(c1ccccc1C(=O)NCc1ccccn1)S(C)(=O)=O
16%	36%	0	-1.8%	CCc1ccc(CN2CCN(C(=O)c3cccc(OC)c3OC)CC2)cc1
-38%	41%	nt	-4.8%	CC(=O)c1cccc(NC(=O)c2ccc3c(c2)OCO3)c1
nt	5%	nt	-1.1%	Cc1ccc(OCC(=O)Nc2ccc(S(=O)(=O)Nc3cc(C)nc(C)n3)cc2)c(C)c1
